DUX4 txn inh: inhibitors of DUX4-driven ZSCAN4 reporter expression, primary screen, 293T cells, Gaussia and Italica luciferase | 293T-iDUX4 ZSCAN4-Gaussia luciferase reporter, 24 h; hits give low values | activity change, negative = inhibition, % (no concentration beside the values) | 37,000 compounds, 0.8% hits | AID 1224904, 2016;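 active means -10% or lower and over 25 points stronger than a control reporter; inconclusive means -10% or lower with a smaller gap; inactive means above -10%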;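 further: 0% = median of neutral control wells and -100% = median of positive control wells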
DUX4 txn inh difference: recorded beside DUX4 txn inh, whose call it bears; Gaussia minus Italica difference, %; measured here: selective DUX4 reporter inhibition;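 worked out from the two reporters; negative = selective loss of the DUX4 reporter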
DUX4 txn inh control: second read-out of DUX4 txn inh, no call of its own (marks repeat the call); activity change, negative = inhibition, %; measured here: Italica tet-on control reporter;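 0 = neutral control and -100 = positive control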
Starred values were filed as active, the others as inactive; ? = inconclusive; · = not tested or not shown. These rows are one share of the data (hit frequency here may not be typical).

SMILES	DUX4 txn inh	DUX4 txn inh difference	DUX4 txn inh control
N#C[C@@H]1[C@@H](c2ccccc2C2=CCCCC2)[C@H](CO)N1C(=O)NC1CCCC1	?	·	·
Cc1ccccc1S(=O)(=O)N1CC(=O)N2[C@@H](CO)[C@H](c3ccc(C#CCN(C)C)cc3)[C@@H]2C1	8	4	4.5
COc1ccc2c3c([nH]c2c1)[C@H](CO)N(C(=O)Cc1ccccc1)CC31CCN(C)CC1	2	-3	5.4
CN1CCN(C(=O)C[C@@H]2CC[C@H](NC(=O)c3ccc4c(c3)OCO4)[C@H](CO)O2)CC1	-1	0	-1.2
CCC(=O)N1CC2(C1)[C@@H](c1ccccc1)[C@@H](CO)N2C(=O)c1ccncc1	12	11	1.8
COc1ccc2c3c(n(C)c2c1)[C@H](CO)N(C)CC31CN(C(=O)Nc2cccc(F)c2)C1	13	8	4.9
CS(=O)(=O)N1CC2(C1)[C@H](c1ccccc1)[C@@H](CO)N2CC1CCCC1	2	2	-0.2
CCCNC(=O)[C@H]1[C@H](CO)[C@H]2Cn3c(ccc(-c4ccccc4)c3=O)[C@H]2N1C(=O)C1CC1	19	11	7.8
CCCNC(=O)N1[C@@H]2Cn3c(cccc3=O)[C@H]1[C@@H](C(=O)NCC(F)(F)F)[C@@H]2CO	-1	-1	0.0
CCS(=O)(=O)Nc1ccc2c(c1)C(=O)N(C)[C@H]1CC[C@H](CC(=O)Nc3ccc(Cl)cc3)O[C@@H]1CO2	2	-3	4.7
O=S(=O)(c1ccc(F)cc1)N1CCCCN2[C@H](CO)[C@H](c3ccc(-c4cncnc4)cc3)[C@H]2C1	1	3	-2.7
COCC(=O)N1C[C@@H]2[C@H](c3ccccc31)[C@@H](CO)N2Cc1ccccc1F	-1	2	-3.1
COCC(=O)Nc1ccc2c(c1)[C@H]1C[C@@H](CC(=O)NC3CCCC3)O[C@@H](CO)[C@H]1O2	12	9	3.1
CC(C)N(C[C@H]1[C@@H](c2ccccc2)[C@H](CO)N1S(C)(=O)=O)C(=O)CN(C)C	4	2	1.7
O=C(Cc1ccccc1)N1C[C@@H]2[C@H](c3ccccc31)[C@@H](CO)N2C(=O)c1ccc(F)cc1	1	-1	1.3
CO[C@@H]1CN(C)C(=O)c2cc(NC(=O)C3CCOCC3)ccc2OC[C@H](C)N(C(C)=O)C[C@H]1C	4	-3	6.6
N#C[C@H]1[C@@H](c2ccc(-c3ccc(F)cc3)cc2)[C@H](CO)N1c1nc(-c2ccccc2)cs1	-1	-2	1.9
COc1cccc(NC(=O)Nc2ccc3c(c2)C(=O)N(C)C[C@H](OC)[C@H](C)CN[C@@H](C)CO3)c1	-3	-2	-0.9
CC(=O)N1[C@@H](CO)[C@H](c2ccccc2)[C@@H]1CN(C(=O)c1ccc(F)cc1)C(C)C	0	0	0.7
CNC[C@H]1Oc2c(N)cccc2C(=O)N([C@H](C)CO)C[C@@H]1C	4	-2	6.1
C[C@@H](O)C#Cc1cnc2c(c1)C(=O)N([C@@H](C)CO)C[C@H](C)[C@H](CN(C)C(=O)CN1CCOCC1)O2	0	1	-1.6
CN1C[C@@H]2[C@H](c3ccccc31)[C@H](CO)N2C(=O)c1ccccn1	2	-1	3.6
CC(C)NC(=O)N1C[C@H]2[C@@H](c3ccccc31)[C@@H](CO)N2C(=O)c1ccc(F)cc1	4	5	-1.3
CN(C)C(=O)C[C@@H]1CC[C@@H]2[C@H](COC[C@H](O)CN2Cc2nccs2)O1	3	2	1.3
O=C(NC[C@@H]1[C@@H](c2ccccc2)[C@H](CO)N1C(=O)C1CCC1)NC1CCCC1	0	-1	1.0

Four entries picked at random from the list so far:
SMILES	DUX4 txn inh	DUX4 txn inh difference	DUX4 txn inh control
CN1CCN(C(=O)C[C@@H]2CC[C@H](NC(=O)c3ccc4c(c3)OCO4)[C@H](CO)O2)CC1	-1	0	-1.2
CCCNC(=O)[C@H]1[C@H](CO)[C@H]2Cn3c(ccc(-c4ccccc4)c3=O)[C@H]2N1C(=O)C1CC1	19	11	7.8
CCCNC(=O)N1[C@@H]2Cn3c(cccc3=O)[C@H]1[C@@H](C(=O)NCC(F)(F)F)[C@@H]2CO	-1	-1	0.0
CC(C)N(C[C@H]1[C@@H](c2ccccc2)[C@H](CO)N1S(C)(=O)=O)C(=O)CN(C)C	4	2	1.7

Next part.
SMILES	DUX4 txn inh	DUX4 txn inh difference	DUX4 txn inh control
O=C(C[C@@H]1CC[C@H]2[C@@H](COC[C@@H](O)CN2C(=O)Nc2ccc(Cl)cc2)O1)NCCc1ccncc1	14	-4	18
Cc1ccc(NC(=O)Nc2ccc3c(c2)C(=O)N(C)[C@@H]2CC[C@H](CC(=O)O)O[C@H]2CO3)cc1	-1	-5	3.9
COC(=O)N(C)C[C@H]1OCc2cn(nn2)CCCC(=O)N([C@@H](C)CO)C[C@@H]1C	3	1	2.6
O=C(NCC[C@H]1CC[C@H](NS(=O)(=O)Cc2ccccc2)[C@H](CO)O1)C1CCCCC1	-2	-2	0.0
CCc1csc(N2[C@H](C#N)[C@H](c3ccc(-c4cccc(F)c4)cc3)[C@H]2CO)n1	-6	-3	-3.1
COCC#Cc1ccc([C@@H]2[C@H]3CN(Cc4ccccc4F)CCCCN3[C@H]2CO)cc1	1	-18	19
Cc1noc(C)c1NC(=O)Nc1ccc2c(c1)C(=O)N([C@@H](C)CO)C[C@H](C)[C@H](CN(C)S(=O)(=O)c1cccs1)OCCCC[C@@H](C)O2	0	1	-0.2
O=C(NC1CCCC1)[C@H]1[C@H](CO)[C@H]2Cn3c(ccc(-c4ccccc4F)c3=O)[C@@H]1N2C(=O)CC1CC1	-3	4	-7.3
C[C@H](CO)N1C[C@H](C)[C@@H](CN(C)Cc2ccncc2)OCc2ccccc2-c2c(n(C)c3ccccc23)C1=O	11	8	3.1
OC[C@@H]1[C@@H](c2ccccc2)C2(CN(CCC(F)(F)F)C2)N1Cc1cccnc1	15	19	-3.9
O=C(Cc1cccnc1)N1CC(=O)N2[C@H](CO)[C@@H](c3ccc(C4=CCCCC4)cc3)[C@H]2C1	1	-1	2.0
CC=Cc1ccc2n(c1=O)C[C@@H]1[C@@H](CO)[C@H](C(=O)NC3CCCC3)[C@H]2N1Cc1ccncc1 (mixture of isomers)	-1	-4	2.8
CCCNC(=O)N1CC2(CCN(S(=O)(=O)CC)CC2)c2c([nH]c3cc(OC)ccc23)[C@H]1CO	2	-5	6.9
CC(C)NC(=O)Nc1ccc2c(c1)C(=O)N([C@H](C)CO)C[C@H](C)[C@@H](CN(C)C(=O)C1CCCCC1)OCCCC[C@@H](C)O2	0	-4	3.7
Cc1noc(C)c1NC(=O)Nc1ccc2c(c1)C(=O)N([C@@H](C)CO)C[C@@H](C)[C@@H](CN(C)C(=O)Cc1ccccc1)OCCCC[C@@H](C)O2	4	2	2.0
CCCC(=O)Nc1ccc2c(c1)OC[C@H](C)N(C(=O)c1cccnc1)C[C@H](C)[C@@H](OC)CN(C)C2=O	-1	-3	2.1
CCCC(=O)N1CC2(C1)CN(CC1CC1)[C@@H](CO)c1[nH]c3cc(OC)ccc3c12	8	3	4.7
C/C=C/c1ccc([C@H]2[C@H](CO)N(C(C)=O)C23CN(C(=O)c2ccncc2)C3)cc1	4	0	4.1
C[C@H](NC(=O)C[C@H]1C[C@H]2c3cc(NC(=O)NC4CCCCC4)ccc3O[C@H]2[C@H](CO)O1)c1ccccc1	12	33	-21
CS(=O)(=O)Nc1ccc2c(c1)[C@@H]1C[C@H](CC(=O)N3CCc4ccccc4C3)O[C@H](CO)[C@@H]1O2	0	-5	5.6
COc1ccc(NC(=O)N(C)C[C@@H]2Oc3c(NS(=O)(=O)c4c(C)noc4C)cccc3C(=O)N([C@@H](C)CO)C[C@@H]2C)cc1	-5	-6	0.1
Cc1noc(C)c1NC(=O)N[C@H]1CC[C@@H](CC(=O)NCc2ccc(Cl)c(Cl)c2)O[C@H]1CO	-4	-1	-2.9
O=C(Cc1ccccc1)N1CC[C@@H]2[C@H](CO)Nc3ccc(-c4cccc(F)c4)cc3[C@@H]21	?	·	·
C/C=C/c1ccc([C@H]2[C@@H](CO)N(C(=O)CN(C)C)C23CN(C(=O)C2CCCC2)C3)cc1	0	6	-6.7
CC(C)c1cn(CC[C@H]2CC[C@@H](NC(=O)Nc3cc(Cl)cc(Cl)c3)[C@H](CO)O2)nn1	-5	2	-6.7

Filtered by structure, the entries above with a Cl atom.
SMILES	DUX4 txn inh	DUX4 txn inh difference	DUX4 txn inh control
CCS(=O)(=O)Nc1ccc2c(c1)C(=O)N(C)[C@H]1CC[C@H](CC(=O)Nc3ccc(Cl)cc3)O[C@@H]1CO2	2	-3	4.7
O=C(C[C@@H]1CC[C@H]2[C@@H](COC[C@@H](O)CN2C(=O)Nc2ccc(Cl)cc2)O1)NCCc1ccncc1	14	-4	18
Cc1noc(C)c1NC(=O)N[C@H]1CC[C@@H](CC(=O)NCc2ccc(Cl)c(Cl)c2)O[C@H]1CO	-4	-1	-2.9
CC(C)c1cn(CC[C@H]2CC[C@@H](NC(=O)Nc3cc(Cl)cc(Cl)c3)[C@H](CO)O2)nn1	-5	2	-6.7

Next structures follow.
SMILES	DUX4 txn inh	DUX4 txn inh difference	DUX4 txn inh control
CN1C(=O)c2cc(NC(=O)c3cscn3)ccc2OC[C@H]2O[C@H](CC(=O)NCC3CC3)CC[C@H]21	0	-3	2.5
COc1cccc(CN(C)C[C@H]2OCc3cnnn3CCCC(=O)N([C@H](C)CO)C[C@H]2C)c1	-4	-4	0.5
CCS(=O)(=O)N1CC2(CN(C(=O)NC(C)C)[C@@H](CO)c3c2c2ccc(OC)cc2n3C)C1	17	16	1.1
COc1ccc(CNC(=O)C[C@@H]2C[C@H]3c4cc(NC(=O)NC5CCCC5)ccc4O[C@H]3[C@H](CO)O2)cc1	-3	-9	6.0
Cc1noc(C)c1S(=O)(=O)Nc1ccc2c(c1)C(=O)N([C@@H](C)CO)C[C@@H](C)[C@H](CN(C)C(=O)Nc1cccc3ccccc13)OCCCC[C@@H](C)O2	2	0	2.2
C/C=C/c1ccc([C@H]2[C@@H](CNC(=O)CC3CC3)N(C(C)=O)[C@H]2CO)cc1	0	-1	1.7
C[C@@H]1CN([C@@H](C)CO)C(=O)CCCn2nncc2CO[C@@H]1CN(C)C(=O)Nc1cccc2ccccc12	-4	-6	2.4
N#C[C@H]1[C@@H](c2ccccc2-c2ccccc2F)[C@H](CO)N1C(=O)Cc1ccccc1	5	11	-6.2
Cc1ccc(S(=O)(=O)N[C@H]2CC[C@@H](CCNC(=O)C3CCOCC3)O[C@@H]2CO)cc1	3	3	-0.5
CO[C@@H]1CN(C)C(=O)c2cc(NS(C)(=O)=O)ccc2OC[C@H](C)N(C)C[C@H]1C	-4	-6	1.7

Ordered by value in DUX4 txn inh control (highest first): five from the list above
SMILES	DUX4 txn inh	DUX4 txn inh difference	DUX4 txn inh control
CN1C(=O)c2cc(NC(=O)c3cscn3)ccc2OC[C@H]2O[C@H](CC(=O)NCC3CC3)CC[C@H]21	0	-3	2.5
Cc1noc(C)c1S(=O)(=O)Nc1ccc2c(c1)C(=O)N([C@@H](C)CO)C[C@@H](C)[C@H](CN(C)C(=O)Nc1cccc3ccccc13)OCCCC[C@@H](C)O2	2	0	2.2
CCS(=O)(=O)N1CC2(CN(C(=O)NC(C)C)[C@@H](CO)c3c2c2ccc(OC)cc2n3C)C1	17	16	1.1
Cc1ccc(S(=O)(=O)N[C@H]2CC[C@@H](CCNC(=O)C3CCOCC3)O[C@@H]2CO)cc1	3	3	-0.5
N#C[C@H]1[C@@H](c2ccccc2-c2ccccc2F)[C@H](CO)N1C(=O)Cc1ccccc1	5	11	-6.2

From PubChem
